2A Renilla = lowers the Renilla signal of an FMDV 2A StopGo reporter; HEK cells with a luciferase reporter of 2A StopGo recoding; 120,000 tested, 0.32% active; Potency, µM (titrated, usually from 57.5 µM), inactives show at the highest dose signal change, negative = less light; active means well fitted falling curve with a large enough effect; inconclusive means small, poorly fitted or top-dose-only effect; inactive means no such curve, though single readings can be large or run the other way; note: nearly all actives have a fitted effect of over 55% in size; overnight with compound
StopGo FLuc = FMDV 2A StopGo reporter, firefly signal. AID 1745856. Potency, µM (doses to about 57.5 µM), inactives show at the top dose signal change, negative = less light. HEK cells with a luciferase reporter of 2A StopGo recoding. 120,000 tested, 0.23% active; active = well fitted falling curve with a large enough effect; inconclusive = small, poorly fitted or top-dose-only effect; inactive = no such curve, though single readings can be large or run the other way; note: nearly all actives have a fitted effect of over 60% in size; overnight with compound
Numbers without * were called inactive; ? = inconclusive; & = joins results of further samples; [ ] = another dose, or the depositor's remark. % is set by controls: 0 for no effect and ±100 for the full control effect; potency is the fitted concentration of half-maximal effect. This is a subset; count on the stated rates, not on these rows.

SMILES	2A Renilla	StopGo FLuc
CCCCN1CC(C(=O)Nc2ccc(C(=O)Nc3ccc(C#N)c(Cl)c3)cc2)CC1=O (stereo not given)	?	-3%
Cc1ccc(N2CC(NC(=O)c3ccc4c(c3)OCO4)CC2=O)cc1 (stereo not given)	-2%	-16%
Oc1c(C(c2ccccc2)N2CCN(c3ccccc3)CC2)sc2nc(-c3ccco3)nn12 (stereo not given)	4%	13%
CCOC(=O)c1cc2n(n1)CC(C)(C(=O)NCCC(C)C)N(c1cccc(Cl)c1C)C2=O (stereo not given)	2%	-3%
COc1ccc2cc(C(C)C(=O)Nc3cccc4cccnc34)ccc2c1 (stereo not given)	13%	15%
Cc1ccc(CNC(=O)[C@H](Cc2ccccc2)NC(=O)c2ccco2)cc1	74%[activator]	14%
Cc1ccc(NC(=O)CCCc2nc3ccccc3o2)cc1C	1%	0%
CC(C)CN1C(=O)N2Cc3ccccc3C2CS1(=O)=O (stereo not given)	15%	128%[activator]
COc1ccc(-c2noc(N3CCC(C(=O)N4CCN(c5ccccc5F)CC4)CC3)n2)cc1	-6%	-3%
CCNC(=S)N(Cc1ccco1)Cc1cccs1	-5%[1.06 µM]	0%
N#Cc1c[nH]n2c(NC3CCCC3)c(-c3ccc(Cl)cc3)nc12	5%	24%
CCN1C(=O)S/C(=C/c2cn(C(C)C)c3ccccc23)C1=O	1%	47%[activator]
CC(=O)c1ccc(NC(=O)CSc2nc(-c3ccccc3C)nc3c2c(=O)n(C)c(=O)n3C)cc1	-10%	-10%
CC(NC(=O)C1CCN(c2nc3ccccc3nc2C(F)(F)F)CC1)c1ccccc1 (stereo not given)	-6%	-9%
CCCCCCc1cc2c3c(c(=O)oc2cc1OCC(=O)OC(C)C)CCCC3	-3%	5%
COc1ccc2c(c1)C=C(C(=O)Nc1ccc(C(=O)OC(C)C)cc1)C=CO2	-30%	-8%
C=Cc1ccc(Cn2c(=O)n(CC3CCC(C(=O)NC(C)C)CC3)c(=O)c3sccc32)cc1 (stereo not given)	7%	5%
CCNC(=O)CSc1ncnc2cc(-c3ccc(F)cc3)sc12	7%	-22%
CC1CCC(NC(=O)CCCNC(=O)C(C)(C)C)CC1 (stereo not given)	1%	86%[activator]
CCN(c1ccc(NC(=O)CN(C)c2ccccc2)cc1)C(C)C	59%[activator]	0%

Entries of single compounds, quoted from the list. Values in the order: 2A Renilla, StopGo FLuc
`COc1ccc2c(c1)C=C(C(=O)Nc1ccc(C(=O)OC(C)C)cc1)C=CO2` is listed with -30%, -8%
`CCNC(=S)N(Cc1ccco1)Cc1cccs1` is listed with -5%[1.06 µM], 0%

A different layout for part of the listing above:
SMILES,2A Renilla,StopGo FLuc
Oc1c(C(c2ccccc2)N2CCN(c3ccccc3)CC2)sc2nc(-c3ccco3)nn12 (stereo not given),4%,13%
CCOC(=O)c1cc2n(n1)CC(C)(C(=O)NCCC(C)C)N(c1cccc(Cl)c1C)C2=O (stereo not given),2%,-3%
COc1ccc2cc(C(C)C(=O)Nc3cccc4cccnc34)ccc2c1 (stereo not given),13%,15%
Cc1ccc(CNC(=O)[C@H](Cc2ccccc2)NC(=O)c2ccco2)cc1,74%[activator],14%
Cc1ccc(NC(=O)CCCc2nc3ccccc3o2)cc1C,1%,0%
CC(C)CN1C(=O)N2Cc3ccccc3C2CS1(=O)=O (stereo not given),15%,128%[activator]
COc1ccc(-c2noc(N3CCC(C(=O)N4CCN(c5ccccc5F)CC4)CC3)n2)cc1,-6%,-3%
CCNC(=S)N(Cc1ccco1)Cc1cccs1,-5%[1.06 µM],0%
N#Cc1c[nH]n2c(NC3CCCC3)c(-c3ccc(Cl)cc3)nc12,5%,24%
CCN1C(=O)S/C(=C/c2cn(C(C)C)c3ccccc23)C1=O,1%,47%[activator]
CC(=O)c1ccc(NC(=O)CSc2nc(-c3ccccc3C)nc3c2c(=O)n(C)c(=O)n3C)cc1,-10%,-10%
CC(NC(=O)C1CCN(c2nc3ccccc3nc2C(F)(F)F)CC1)c1ccccc1 (stereo not given),-6%,-9%
CCCCCCc1cc2c3c(c(=O)oc2cc1OCC(=O)OC(C)C)CCCC3,-3%,5%
COc1ccc2c(c1)C=C(C(=O)Nc1ccc(C(=O)OC(C)C)cc1)C=CO2,-30%,-8%

Following part.
SMILES	2A Renilla	StopGo FLuc
CCCCCCNC(=O)CCc1c(C)c2ccc(C)cc2oc1=O	8%	-7%
Cc1ccc(NC(=O)c2cc3c([nH]c2=O)CC(C)(C)CC3=O)c(C)c1	-5%	?
CCCCOCCCNC(=O)CCC(=O)NC1CCCCCCCCCCC1	15%	24%
COc1ccc(C(=O)N(Cc2ccco2)Cc2ccc(C)o2)cc1	75%[activator]	-3%
Cc1nn(CC(O)c2ccc(F)cc2F)c(=O)c2ccccc12 (stereo not given)	-12%	116%[activator]
Cc1ccc(S(=O)(=O)N2CCC(c3nnc(-c4cccc(C)c4)o3)CC2)cc1	17%	27%
Oc1ccc(-n2nnnc2SCc2ncc(-c3ccc(Cl)cc3)o2)cc1	-28%	-22%
O=C(CCc1nc(CSc2n[nH]c(-c3cccc(F)c3)n2)no1)Nc1ccc2ccccc2c1	-1%	81%[activator]
CCOC(=O)c1c(S(=O)(=O)N2CCCC(C(=O)Nc3ccc(F)c(F)c3)C2)c(C)n(C)c1C (stereo not given)	36%[activator]	-5%
Cc1c(Cl)cccc1-n1nc(C)c2c(C)cc(=O)n(CC(=O)NCc3ccccc3)c21	-2%	-20%
C=CCc1cc(/C=C2\NC(=O)NC2=O)cc(OCC)c1OCc1ccc(F)cc1	-4%	6%
Cc1cccc(Nc2ncnc3onc(-c4ccc(Cl)cc4)c23)c1C	3%	-7%
CCOc1cc(/C=C(/C#N)c2ccc(C(F)(F)F)cn2)ccc1O	3%	41%[activator]
CCOc1ccc(CNCc2ccco2)cc1OC	9%	6%
Cc1n[nH]c(C)c1C(C)N (stereo not given)	-9%	11%
O=C(Nc1cc(S(=O)(=O)N2CCOCC2)ccc1NCC1CCCO1)NC1CCCCC1 (stereo not given)	17%	1%
N/C(=C\C(=O)/C=C/c1ccco1)C(F)(F)F	-6%	0%
Cc1cc(S(=O)(=O)NCC(c2ccco2)S(=O)(=O)c2ccccc2)ccc1F (stereo not given)	316%[activator]	-22%
O=C(NC(c1ccccc1)c1cc2ccccc2o1)C1CC1 (stereo not given)	17%	10%
CCc1c(C)[nH]c2ccc(C)cc2c1=O	-8%	0%
Cc1ccc(CNC(=O)CN(c2ccc(C)cc2)S(=O)(=O)c2c(C)nn(C)c2C)cc1	97%[activator]	110%[activator]
Cc1cc(Cl)ccc1NC(=O)C1CCN(S(=O)(=O)c2ccc3[nH]c(=O)ccc3c2)CC1	-9%	-12%
CC(=O)N1CCCc2cc(S(=O)(=O)NCc3ccccc3Cl)ccc21	11%&12%	23%&4%
CC(Oc1ccccc1)C(=O)N1CCN(Cc2cc(=O)n3nc(-c4ccccc4F)sc3n2)CC1 (stereo not given)	-5%	-4%
C#CCNC(=O)NC(CC(C)C)c1ccccc1 (stereo not given)	-9%	7%
Cc1cc(OCC(=O)N(Cc2cccs2)c2ccccn2)ccc1Cl	62%[activator]	60%[activator]
COc1ccc2nc(NC(=O)c3nc(S(=O)(=O)Cc4ccccc4F)ncc3Cl)sc2c1	8%	99%[activator]
Cc1cccc(-n2c(=O)c3c(n4cnnc24)-c2ccccc2CC32CCCCC2)c1	0%	1%
COc1ccc2c(c1)sc1ncc(C(=O)NCc3cccc(Cl)c3)c(=O)n12	-1%	-4%
N#Cc1ccc(-c2csc(-c3ccncc3)n2)cc1	-6%	51%[activator]
CN(C)C(CNC(=O)c1cc(=O)c2cc(Cl)ccc2o1)c1ccco1 (stereo not given)	-3%	2%
CCOc1ccc(-n2c(SCC(=O)c3ccccc3)nc3c([nH]c4ccccc43)c2=O)cc1	0%	-1%
COc1ccc2c(c1)c1c(c(=O)n(-c3ccc(C)cc3)c(=O)n1CC(=O)c1ccc(Cl)cc1)n2C	-7%	-12%
Cc1ccc(C)c(NC(=O)c2ccc3c(c2)CCC3)c1	3%	18%
CC(=O)N1CCSc2ccc(S(=O)(=O)Nc3ccc(C)c(N(C)C)c3)cc21	109%[activator]	?
Cc1ccc(S(=O)(=O)NCc2c(C)nn(Cc3ccccc3)c2C)cc1	48%[activator]	9%
Cc1cc(C(=O)Nc2ccc3c(c2)CCC3)c(C)s1	6%	213%[activator]
CCCCCCC(C)NC(=O)COC(=O)c1n[nH]c(=O)c2ccccc12 (stereo not given)	-2%	8%
Cc1n[nH]c(=O)c2c(NC(=O)CSc3nnc(C4CC4)n3Cc3ccccc3)oc(C)c12	7%	11%
Cc1ccc(/C=C/C(=O)c2c(C)nc3ccc(Br)cc3c2-c2ccccc2)o1	-10%	-4%
CCOc1ccc(NS(=O)(=O)c2ccc3[nH]c4c(c3c2)CCCC4)cc1	290%[activator]	-5%
CS(=O)(=O)c1oc(-c2ccc(F)cc2)nc1S(=O)(=O)c1ccc(Cl)cc1	-10%	-10%
Cn1nc(C(=O)OCCOc2ccc(Cl)cc2)c2ccccc2c1=O	-11%	1%
CCC(Cn1nnc2ccccc2c1=O)NC(=O)Nc1cc(Cl)ccc1OC (stereo not given)	60%[activator]	-9%
COc1ccc(NC(=O)c2ccc3c(c2)nnn3C2CCCC2)cc1Cl	15%	-7%
COC(=O)c1c(NC(=O)COc2ccc(C)cc2Br)sc2c1CCCC2	-3%	-6%
O=C(C1CCN(S(=O)(=O)c2cccc3nonc23)CC1)N1CCN(c2ccccc2)CC1	-3%	-10%
Cc1ccc(S(=O)(=O)n2cnc3cc(C)c(C)cc32)cc1C	-6%	-12%
COc1cccc(CNS(=O)(=O)c2ccc3c(c2)N(C(C)=O)CCO3)c1	22%	-1%
COC(=O)c1ccc(Oc2coc3cc(OS(C)(=O)=O)ccc3c2=O)cc1	-4%	8%
O=S1(=O)CCN2C(c3ccccc3Cl)=CSC2=N1	5%	11%
Cc1cccnc1NC(=O)C1CC(=O)N(Cc2ccco2)C1 (stereo not given)	0%	2%
CN=c1scc(-c2ccccc2)n1/N=C/c1ccsc1	?	?
COc1ccc(Cn2ccc3nc(C)c(C(=O)Nc4ccc(F)cc4)cc3c2=O)cc1	8%	11%
COc1ccc(-n2c(/C=C/c3ccco3)nc3ccccc3c2=O)cc1	1%	42%[activator]
CCC1c2ccsc2CCN1C(=O)CNC(=O)c1ccc(Cl)c(Cl)c1 (stereo not given)	29%	-12%
CC(C)(O)C#Cc1ccc(C2NCCS2)cc1 (stereo not given)	0%	0%
CCC(C(=O)Nc1ccc(OC)cc1)n1nc(-c2cc(C)ccc2C)ccc1=O (stereo not given)	21%	9%
CCOc1cccc2sc(N(Cc3cccnc3)C(=O)c3ccc(C#N)cc3)nc12	-12%	-14%
Cc1ccc(-c2nc(CS(=O)CC(=O)N3CCN(c4ccc(F)cc4)CC3)c(C)o2)cc1 (stereo not given)	-3%	-2%

Going on with the list.
SMILES	2A Renilla	StopGo FLuc
O=C(NC1(C(F)(F)F)C(=O)Nc2c1c(=O)[nH]c(=O)n2CCc1ccccc1)c1ccc(Cl)cc1Cl (stereo not given)	-5%	-8%
COc1ccc(-c2nc(CSc3nc4ncccc4[nH]3)c(C)o2)cc1OC	-18%	-15%
O=C(O)COc1ccc(S(=O)(=O)Nc2ccc(Cl)c(Cl)c2)cc1	18%	2%
O=C(Nc1ccccc1C(F)(F)F)n1ncc2cc(Cl)ccc21	-15%	4%
CCc1ccccc1NC(=O)N1CCc2c([nH]c3ccccc23)C1c1ccc(C)cc1 (stereo not given)	16%	0%
COC(=O)c1cc2occc2n1Cc1cccc(C)c1	-14%	3%
COc1ccc(NC(=O)c2c(NC(=O)c3ccncc3)sc3c2CCC(C(C)(C)C)C3)cc1 (stereo not given)	-13%	-5%
O=C(NCN1CCOCC1)c1cnccn1	4%	-11%[11.5 µM]
Cc1cc(Cl)cc(C)c1OCC(=O)NCCc1nnc2ccccn12	-11%	8%
CCOc1ccc(C(=O)Nc2ccc3nc(SCc4ccccc4)sc3c2)cc1	2%	1%
Cc1cc(=O)n2nc(N3CCC(C(=O)NCc4ccc(F)cc4)CC3)sc2n1	-20%	-16%
O=C(Nc1ccccc1)C1CCN(S(=O)(=O)c2ccc3c(c2)CCCN3C(=O)C2CCC2)CC1	6%	-21%
COc1ccc(N2C(=O)CCSC23C(=O)N(Cc2ccc(F)cc2)c2ccccc23)cc1Cl (stereo not given)	210%[activator]	63%[activator]
COc1ccc(-c2cn3nc(N4CCC(C(=O)Nc5cc(Cl)ccc5OC)CC4)sc3n2)cc1	-16%	6%
Cc1ccc(NC(=O)Cn2nnc(C(=O)NCCc3ccccc3)c2N)cc1C	-1%	-13%
COc1ccc(N(CC(=O)N2CCN(c3cccc(OC)c3)CC2)S(=O)(=O)c2c(C)noc2C)cc1	5%	-22%
COCCCNC(=O)c1cc2cc(C)ccc2nc1C	-8%	-6%
CCOC(=O)C1CCN(C(=O)Cn2ncc3c4ccccc4n(Cc4ccc(F)cc4)c3c2=O)CC1	-7%	2%
O=C(Cn1nc(N2CCN(c3ccccc3)CC2)ccc1=O)NC1CCCCCCC1	-14%	-3%
COc1ccc(NC(=O)c2cc(C)nc3c2c(C)nn3-c2cccc(Cl)c2C)c(OC)c1	-6%	15%
Cc1ccsc1CNS(=O)(=O)c1cccs1	212%[activator]	0%
CCOc1ccc(CN(CCc2ccc3c(c2)OCO3)Cc2cccc(Br)c2)cc1	-9%	-15%
O=C(O)CSc1ccc2c(c1)OCCO2	7%	23%
CC(C)(C)c1ccc(/C=N/NC(=O)Cc2cccc3ccccc23)cc1	8%	0%
CCOC(=O)Cn1c(=O)oc2cc(S(=O)(=O)N3CCN(c4cccc(C)c4C)CC3)ccc21	-17%	-19%
FC(F)(F)c1cccc(CSc2nccc(-c3ccc(Cl)cc3)n2)c1	16%	16%
Cc1ccc(C(=O)c2ccccc2)cc1C	12%	55%[activator]
CCc1ccccc1NC(=O)CCC(=O)c1ccc2c(c1)CCC2	-4%	7%
Cc1ccc2c(c1)c(=O)c(C(=O)c1ccncc1)cn2CC(=O)Nc1ccccc1Cl	-5%	-7%

Compound activity from PubChem.
